# Screening data as filed in PubChem.
# PK Bst: alters activity of Bacillus stearothermophilus pyruvate kinase; partly purified Bacillus stearothermophilus pyruvate kinase, luminescence ATP production; ribose 5-phosphate activator present at AC10; Potency, µM; actives 1.2% (n = 51,000); AID 361; in the data active means potency below about 11 µM; inconclusive means mostly about 12 µM to 25 µM; inactive means weaker than that;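 the screen sought inhibitors and activators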;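 note: potency is the fitted concentration of half-maximal effect; scaled between full activation by ribose 5 phosphate and full inhibition by luteolin; about four in five hits inhibit and the cells do not say which; series up to 57 µM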
# YjeE inh: YjeE (TsaE) inhibition, E. coli. purified YjeE, fluorescence polarisation of a bound ADP probe. Potency, µM. actives 0.05% (n = 71,000); active = well fitted falling curve; inconclusive = weaker or top-dose-only fall, or a rising curve; inactive = flat or poorly fitted curve;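 note: top concentration of the series not given in the record; excess ADP was the control for the full effect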
#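 Fluorescence polarization of a BODIPY Texas Red–ADP probe (2 uM) bound to purified YjeE (10 uM) was read after 15 min room-temperature incubation with compounds. Loss of polarization marks inhibitors; ADP serves as titrated control.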
# The depositor's hits bear a star; i = inactive; ? = inconclusive; . = not tested or not shown. Only part of the results is shown (hit frequency here may not be typical).
SMILES,PK Bst,YjeE inh
O=C(NC12CC3CC(CC(C3)C1)C2)c1ccc(S(=O)(=O)N2CCOCC2)cc1,.,i
N=c1sccn1CC(=O)Nc1cccc(Oc2ccccc2)c1,>57,i
CCc1cc(C(=O)c2ccccc2OC)c(N)s1,>57,i
O=C(OCC(=O)c1cccs1)c1ccccc1,.,i
CCOC(=O)C1Cn2c(nc3c(c2=O)C(C)(CC)Cc2ccccc2-3)S1 (stereo not given),.,i
CC1=C(C(=O)OCc2ccccc2)C(C2CC2)NC(=O)N1CCCCCC(=O)O (stereo not given),.,i
CCOC(=O)N1CCN(C(=O)CN(c2ccc(Oc3ccccc3)cc2)S(C)(=O)=O)CC1,.,i
COc1ccc(CCNC(=O)CSc2nnc(CNc3ccc(Cl)cc3)o2)cc1OC,>57,i
CC1(C)Oc2ccc(NC(=O)C3COc4ccccc4O3)cc2O1 (stereo not given),?,i
O=C(C1CCCO1)N1CCN(C(c2ccccc2)c2ccccc2)CC1 (stereo not given),.,i
O=C1c2ccc(Oc3ccc4c(c3)C(=O)N(CCCO)C4=O)cc2C(=O)N1CCCO,.,i
COc1ccc(C(c2sc3nc(C)nn3c2O)N2CCC(C(N)=O)CC2)cc1OC (stereo not given),.,i
O=[N+]([O-])c1cc(Cl)c(Cl)c(Cl)c1Cl,.,i
COc1ccc(Cl)cc1N1C(=O)C2CCCN2C1c1ccc(F)c(F)c1 (stereo not given),.,i
O=C(NCC1COc2ccccc2O1)c1ccc(NC(=O)c2ccco2)cc1 (stereo not given),>57,i
Cc1cc2oc(=O)cc(COC(=O)Cn3cnnn3)c2cc1C(C)C,>57,i
CCS(=O)(=O)N1CCN(C2CCC(c3ccccc3)CC2)CC1 (stereo not given),>57,i
COc1cc(C)c(-c2cc(C(=O)O)c(C)o2)cc1C(C)C,>57,i
O=C(CSCc1ccco1)Nc1cc(C(F)(F)F)ccc1N1CCOCC1,>57,i
Cc1cccc(-n2c(Cc3cc(=O)[nH]c(=O)[nH]3)nnc2SC(C)C)c1,.,i
CCOC(=O)c1csc(Nc2nc3ccc(F)cc3s2)n1,1.2*,i
CN1C(=O)OC2(C)CCc3ccccc3C12C (stereo not given),>57,i
COCCNC(=O)c1ccc(CS(=O)(=O)c2ccc(OC)cc2)o1,.,i
Cc1ccccc1OCC(=O)N(Cc1nc(-c2ccccc2)no1)C(C)C,>57,i
O=C1NCN(c2ccccc2)C12CCN(c1nnnn1-c1ccccc1)CC2,>57,i
COC(=O)c1ccccc1NC(=O)c1c(O)c2c([nH]c1=O)CCCC2,>57,i
Cc1c(Cl)c(S(N)(=O)=O)cc(S(N)(=O)=O)c1NC(=O)c1ccc(Cl)cc1,.,i
Cc1n[nH]c(C)c1S(=O)(=O)N1CCCC(C(=O)N2CCc3ccccc32)C1 (stereo not given),>57,i
CCCCn1c(CNC(=O)C(C)(C)C)nc2ccccc21,.,i
NCCNS(=O)(=O)c1cccc2cnccc12,.,i

# Shown field by field: entries from further up
Compound: O=C(CSCc1ccco1)Nc1cc(C(F)(F)F)ccc1N1CCOCC1
  PK Bst = >57 | YjeE inh = i
Compound: Cc1cccc(-n2c(Cc3cc(=O)[nH]c(=O)[nH]3)nnc2SC(C)C)c1
  PK Bst = . | YjeE inh = i
Compound: CCOC(=O)c1csc(Nc2nc3ccc(F)cc3s2)n1
  PK Bst = 1.2* | YjeE inh = i
Compound: CN1C(=O)OC2(C)CCc3ccccc3C12C (stereo not given)
  PK Bst = >57 | YjeE inh = i

# Back to the main list, repeating the two entries before the break.
SMILES,PK Bst,YjeE inh
CCCCn1c(CNC(=O)C(C)(C)C)nc2ccccc21,.,i
NCCNS(=O)(=O)c1cccc2cnccc12,.,i
COc1ccc(COC2OC[C@]3(C)[C@H]4C5=C(CN3C(=O)OC(C)(C)C)[C@H](C)C(CO)C(CO)C5CC[C@@H]24)cc1 (stereo not given in full),.,i
C[C@@]12CCC(=O)C=C1CC[C@@H]1[C@@H]2[C@H](O)C[C@]2(C)[C@@H]1CC[C@]2(O)C(=O)CO,.,i
COc1ccc(N2CCN(C(=O)C34CCC(C)(C(=O)C3)C4(C)C)CC2)cc1 (stereo not given),.,i
CN1CCN(C(=O)c2cc(Cl)ccc2Cl)CC1,.,i
CCCC(=O)N1CCN(c2nc(CC(C)C)c3c(c2C#N)CCC3)CC1,>26,.
CC(C)(C)n1nnnc1CN(Cc1ccco1)Cc1cc2cc3c(cc2[nH]c1=O)OCO3,>57,i
CCOC(=O)c1ccc(NC(=O)c2c(O)c3ccccc3n(C)c2=O)cc1,>57,i
O=C(CN1C(=O)c2ccccc2C1=O)NCc1ccncc1,>26,.
Cc1nn(-c2ccccc2)c2nc(=O)n(-c3ccccc3)cc12,>57,i
CCOC(=O)c1c(N)sc(C(=O)N(C)C)c1C,>57,i
COCCNC(=O)[C@H](C)[C@@H]1C[C@@]1(C)[C@@H](NC(=O)OCc1ccccc1)c1ccccc1,.,i
O=C(C1CCCN1S(=O)(=O)c1ccc(Cl)cc1)N1CCOCC1 (stereo not given),>57,i
CCOc1ccc(N2CC(C(=O)Oc3ccccc3)CC2=O)cc1 (stereo not given),>57,i
COC(=O)c1ccccc1NC(=O)C1CCCN(c2nnc(-n3cccc3)s2)C1 (stereo not given),.,i
Cc1ccc(NC(=O)c2cnn(-c3ccccc3)c2NC(=O)c2ccco2)cc1,>57,i
COC(=O)CSc1nnc(-c2ccc(S(=O)(=O)N3CCCCC3)cc2)o1,>57,i
COc1ccccc1NC(=O)C1C2C=CC(O2)C1C(=O)O (stereo not given),>57,i
CCOc1ccccc1NC(=O)Nc1cc(OC)ccc1OC,>57,i
Cc1cccc(/N=C/c2c(O)[nH]c3ccccc23)n1,.,i
O=C(COC(=O)c1ccc(Cl)c(S(=O)(=O)N2CCCC2)c1)NC1CCCC1,>57,i
CNC(=O)OCc1cccc(COC(=O)NC)n1,>57,i
Cc1sc2nc(SCC(=O)NCc3cccs3)[nH]c(=O)c2c1C,>57,i
CCOC(=O)Nc1ccc(S(=O)(=O)Nc2cc(C)on2)cc1,>57,i
CC(C)CCn1c(N2CCN(c3cccc(Cl)c3)CC2)nc2c1c(=O)[nH]c(=O)n2C,>57,i
NC(=NCCCCCCN=C(N)/N=C(\N)Nc1ccc(Cl)cc1)/N=C(\N)Nc1ccc(Cl)cc1,.,?
CCc1nnc(NC(=O)CCN2C(=O)c3ccccc3C2=O)s1,>57,i
CCOC(=O)N1CCN(C(=O)c2ccc(C)c(S(=O)(=O)Nc3ccccc3)c2)CC1,>57,i
Cc1ccc(NS(=O)(=O)c2ccc(CCC(=O)O)cc2)cc1,>57,i
CC(C)n1c(=N)c(C(=O)NCCc2ccccc2)cc2c(=O)n3ccccc3nc21,>57,i
CCC(C)N1CC23C=CC(O2)C(C(=O)OCc2ccccc2)C3C1=O (stereo not given),>57,i

SMILES,PK Bst,YjeE inh
O=C(NCc1ccncc1)/C(=N/O)c1ccccc1,>57,i
C=CCN=C1SC(C)C(=O)N1S(=O)(=O)c1ccccc1 (stereo not given),>57,i
CC1(C)Cc2c(c(N3CCOCC3)nc3sc(-c4ccc(C(=O)O)o4)c(N)c23)CO1,>57,i
COc1ccc(N2C(=O)CC(NC3CC3)C2=O)cc1 (stereo not given),>57,i
CCc1ccc2c(CN(CC)Cc3nc4ccccc4c(=O)[nH]3)cc(=O)oc2c1,>57,i
O=C(Nc1ccccc1N1CCCCC1)c1ccc2nccnc2c1,>57,i
CC(Oc1ccc(Cl)cc1Cl)c1nc(-c2ccccn2)no1 (stereo not given),.,i
O=C(SCc1cccc2ccccc12)c1ccc(Cl)cc1,.,i
Cn1nc(-c2ccc(C(=O)Nc3cccnc3)cc2)c2ccccc2c1=O,>57,i
Cc1nc(N)c(C#N)c(-c2cccnc2)c1C,>57,i
Cn1c(=O)c2c(nc(Br)n2C)n(C)c1=O,>57,i
CCn1c(SCC(=O)NCCOC)nc2sc3c(c2c1=O)CCCC3,>57,i
Cn1cnnc1SCc1ccc(C#N)cc1,>57,i
Cc1cc(C(=O)Nc2nc3c(s2)CCCC3)no1,i,i
Cc1ccc(C(C)C)c(OCCNS(C)(=O)=O)c1,>57,i
CCOC(=O)NCc1ccc(Cl)c(Cl)c1,.,i
CCCCN(C(=O)NC(=O)Nc1ccccc1OCC)S(C)(=O)=O,>57,i
Cc1ccc(NC(=O)C2CCCN2S(=O)(=O)c2ccc(F)cc2)c(C)c1 (stereo not given),>57,i
CC(=O)c1ccc(OC(=O)c2ccc(Br)o2)cc1,.,i
CCC(Oc1ccccc1)C(=O)Nc1nc2ccccc2[nH]1 (stereo not given),>57,i
Cc1cc(NC(=O)CSc2nc3c(c(=O)n2CCc2ccccc2)SC(C)C3)no1 (stereo not given),.,i
COc1ccc(NC(=O)CSc2nnc(CNC(=O)c3ccco3)o2)c(OC)c1,>57,i
COc1ccc(C(c2nnnn2C2CCCCC2)N2CCN(c3ccccc3)CC2)cc1 (stereo not given),>57,i
CCOC(=O)c1c(C)c(C(=O)NCC2CCCO2)c(C)n1CC (stereo not given),>57,i
O=C(Nc1cccc2c1CCCC2)C1CCN(C(=O)NC2CCCCC2)CC1,>57,i
O=C1CC(c2ccco2)CC(O)=C1C=NCCN1CCN(C2CC(=O)N(c3ccccc3)C2=O)CC1 (stereo not given),>26,.
CN1CCN(S(=O)(=O)c2ccc(Br)s2)CC1,>57,i
O=C1CC(c2nc3ccccc3[nH]2)CN1c1ccccc1F (stereo not given),.,i
Cc1ccc2cc3cc(C(=O)NCCN4CCOCC4)oc3nc2c1,.,i
CC12C(=O)N(n3cnnc3)C(=O)C1C1C=CC2C1 (stereo not given),>57,i

SMILES,PK Bst,YjeE inh
O=C(O)Cc1cccnc1,.,i
CCOC(=O)C1CCCN(C(=O)CCn2nc(-c3ccccc3)ccc2=O)C1 (stereo not given),>57,i
CCCn1c(SCCN2C(=O)c3ccccc3C2=O)n[nH]c1=O,>57,i
O=C(c1ccco1)N1C2C=CC(C2)C1(C(F)(F)F)C(F)(F)F (stereo not given),>57,i
CCc1ccc(NC(=O)C2CCCCC2C(=O)O)cc1 (stereo not given),.,i
C=C(C)C1Cc2c(C)nn(-c3nc(C)cc(C)n3)c2C1 (stereo not given),>26,.
CN1CC[n+]2c(CN3C(=O)c4ccccc4C3=O)csc21,>57,i
CCN(CC)CCC[C@H](C)Nc1ccnc2cc(Cl)ccc12,.,i
Cc1ccccc1NC(=O)CN(c1ccc(F)cc1)S(C)(=O)=O,>57,i
O=C(c1cccc(C(=O)N2CCN(Cc3ccccc3)CC2)c1)N1CCN(Cc2ccccc2)CC1,>57,i
c1ccc(-c2oc3ncnc(NCCCN4CCOCC4)c3c2-c2ccccc2)cc1,>57,i
Cc1ccc(C(=O)Nc2ccccc2C(=O)NC2CCCCC2)cc1S(=O)(=O)N1CCOCC1,>57,i
O=C(Nc1c2c(nn1-c1ccc(F)cc1)CS(=O)C2)C12CC3CC(CC(C3)C1)C2 (stereo not given),>57,i
O=C(c1csnn1)N1CCC2(CC1)CN(c1ncccn1)C2,.,i
CCN(CC)c1ccc(NC(=O)CSc2nnc(N)s2)cc1C,.,i
CCOc1ccc(Cn2nnc(C(=O)Nc3cc(OC)cc(OC)c3)c2N)cc1,.,i
COc1ccc(CNC(=O)CN(C(=O)CCC(=O)Nc2ccccn2)c2ccccc2OC)cc1,>57,i
Cn1c(=O)c2c(nc(SCCN3CCOCC3)n2Cc2ccc(F)cc2)n(C)c1=O,>57,i
O=C(CCc1nc(-c2ccccc2F)no1)NC1CCCCC1,>57,i
COc1cccc(-c2nc(-c3ccccn3)no2)c1OC,i,i
O=C(CC1Nc2ccccc2NC1=O)NCC1COc2ccccc2O1 (stereo not given),>57,i
COC(=O)c1c(NC(=O)CN2CCC(C(N)=O)CC2)c2c(C)cccc2n1C,>57,i
Cc1cc(C)c(O)c(-c2cc(C(=O)Nc3ccc(S(=O)(=O)N4CCOCC4)cc3)[nH]n2)c1,>57,i
C[C@@](N)(/C=C\c1ccccc1)C(=O)O,.,i
CC(=O)NC(C)(C)C1CC=C(C)/C(=N\O)C1 (stereo not given),.,i
Cc1ccc(C)c(N)c1,.,i
O=C(c1ccco1)N1CCC2(CC1)CN(C(c1ccccc1)c1ccccc1)C2,.,i
CC(=O)Nc1ccc(S(=O)(=O)NCc2csc(-c3cccnc3)n2)cc1,>57,i
CC(N)=NCc1cccc(CN)c1,.,i
CC(C)(C)NC(=O)[C@@H]1CC[C@@H]2[C@@H]3CC[C@@H]4NC(=O)C=C[C@@]4(C)[C@H]3CC[C@]21C,.,i

SMILES,PK Bst,YjeE inh
Cc1ccccc1-c1nccc(NCCN2CCOCC2)n1,.,i
COc1ccc(Cc2nnc(SCc3nc4ccccc4c(=O)[nH]3)n2C)cc1,>57,i
Nc1ncnc2nc(SCC(=O)N3CCN(c4ccccc4)CC3)[nH]c12,>57,i
CC1(C)Cc2c(C#N)c(N)sc(=S)c2CS1,>57,i
